Source: PubChem BioAssay
FGF22 binding = shifts melting point of recombinant human FGF22; 340,000 tested, 1.5% active; recombinant FGF22 thermal shift, SYPRO orange fluorescence; percent of sucrose octasulfate shift, DMSO zero; Q9HCT0; AID 651658; calls only at 9.99 µM;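 active = melting point raised past a set limit in the mean and every replicate; three in four hits are not shown here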
Target sequence (Q9HCT0 whole entry, looked up): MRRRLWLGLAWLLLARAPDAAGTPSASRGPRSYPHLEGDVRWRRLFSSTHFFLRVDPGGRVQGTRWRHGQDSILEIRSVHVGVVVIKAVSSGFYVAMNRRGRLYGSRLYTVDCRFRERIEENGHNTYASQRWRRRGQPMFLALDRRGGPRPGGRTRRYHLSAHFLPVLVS
rRNA inh HTS = inhibits bacterial ribosomal RNA function over humanized ribosomes. E. coli WT GFP vs humanized-ribosome RFP mutants, fluorescence, 24 h; stronger effect = lower value; DMSO median 0, no signal -100. GFP signal change (wild-type ribosome), % (test concentration not listed). 350,000 tested, 1.6% active. AID 720706;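 active = significant combined selectivity score with lowered wild-type GFP, culture density cut under 30%, mutant RFP and density less affected; inactive = any of these conditions unmet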; note: one replicate is shown; some compounds called inactive have numbers as strong as hits
rRNA inh HTS OD600 = further read-out of rRNA inh HTS, marked with its call; OD600 change, %; measured here: OD600 growth;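 optical density of the mix in the first replicate; 0 = DMSO median and -100 = no signal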
rRNA inh HTS RFP = further read-out of rRNA inh HTS, marked with its call; RFP signal change, %; measured here: RFP humanized mutant strains;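 first replicate; 0 = DMSO median and -100 = no signal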
* hit, by the source's call; i = inactive. Some of the compounds tested; rates above refer to the full screens.

entry | FGF22 binding | rRNA inh HTS | rRNA inh HTS OD600 | rRNA inh HTS RFP | Compound
1 | i | 3 | -2 | 0.3 | CCS(=O)(=O)N1CCCCN2[C@H](C1)[C@H](c1ccc(-c3cccc(C#N)c3)cc1)[C@@H]2CO
2 | i | 3 | 12 | -0.4 | COc1ccc2c3c(n(C)c2c1)[C@@H](CO)N(C(=O)NC(C)C)CC31CN(CC2CCOCC2)C1
3 | i | 2 | -4 | 0.1 | CN(C)c1ccc2c(c1)[C@@H]1C[C@@H](CC(=O)NCc3ccncc3)O[C@@H](CO)[C@@H]1O2
4 | i | 1 | 2 | -1.0 | C[C@@H]1CN([C@@H](C)CO)C(=O)c2cc(NC(=O)CCC(F)(F)F)ccc2O[C@@H](C)CCCCO[C@@H]1CN(C)Cc1ccc(C(=O)O)cc1
5 | i | -1 | 1 | -0.5 | COCC(=O)Nc1ccc2c(c1)[C@H]1C[C@H](CC(=O)NCc3ccc4c(c3)OCO4)O[C@H](CO)[C@H]1O2
6 | i | 3 | 11 | -0.4 | C[C@H]1CN([C@@H](C)CO)C(=O)Cc2cc(NC(=O)Nc3ccccc3)ccc2O[C@@H]1CN(C)C(=O)Nc1ccccc1
7 | i | 5 | 3 | -0.2 | C[C@@H]1CN([C@H](C)CO)C(=O)c2cc(NC(=O)c3ccncc3)ccc2O[C@@H](C)CCCCO[C@@H]1CN(C)CC1CC1
8 | i | -4 | -18 | -1.3 | CCC(=O)N1CC2(C1)[C@H](c1ccccc1)[C@H](CO)N2Cc1cc(F)ccc1F
9 | i | -17 | -60 | 23 | C[C@@H]1CN([C@@H](C)CO)C(=O)Cc2cc(NC(=O)CCN3CCOCC3)ccc2O[C@H]1CN(C)Cc1ccc(Oc2ccccc2)cc1
10 | i | -1 | 3 | 0.3 | C[C@@H]1CN([C@@H](C)CO)S(=O)(=O)c2ccc(C#C[C@@H](C)O)cc2O[C@H]1CN(C)C(=O)CC1CC1
11 | i | -3 | 2 | 0.4 | O=C(Cc1ccccc1)N1C[C@@H]2[C@H](c3ccccc31)[C@H](CO)N2C(=O)c1cccc(F)c1
12 | i | 4 | 9 | 0.3 | Cc1ccc(S(=O)(=O)Nc2ccc3c(c2)CC(=O)N([C@@H](C)CO)C[C@@H](C)[C@@H](CN(C)C)O3)cc1
13 | i | -4 | -7 | -0.3 | C[C@H]1CN([C@@H](C)CO)C(=O)Cc2cc(NC(=O)CCN3CCOCC3)ccc2O[C@H]1CN(C)Cc1ccc(Oc2ccccc2)cc1
14 | i | -24 | -52 | 32 | C[C@@H]1CN([C@@H](C)CO)S(=O)(=O)c2ccc(C#CC3CC3)cc2O[C@@H]1CN(C)Cc1ccncc1
15 | i | -7 | -10 | 2.9 | COc1ccc(S(=O)(=O)N(C)C[C@@H]2Oc3ccc(NC(=O)Nc4ccc(F)cc4)cc3C(=O)N([C@H](C)CO)C[C@H]2C)cc1
16 | i | -4 | 0 | 2.0 | CCCNC(=O)C[C@@H]1CC[C@H]2[C@H](COc3ccc(NC(=O)c4ccc(OC)cc4)cc3C(=O)N2C)O1
17 | i | -6 | -2 | -0.2 | COc1ccc(S(=O)(=O)N(C)C[C@@H]2Oc3c(cccc3N(C)C)C(=O)N([C@H](C)CO)C[C@@H]2C)cc1
18 | i | 4 | 4 | -1.8 | CCS(=O)(=O)Nc1ccc2c(c1)C(=O)N(C)C[C@H](OC)[C@H](C)CN[C@H](C)CO2
19 | i | -5 | -13 | 5.4 | Cc1noc(C)c1S(=O)(=O)Nc1ccc2c(c1)C(=O)N([C@@H](C)CO)C[C@H](C)[C@@H](CN(C)Cc1ccc(Cl)c(Cl)c1)O2
20 | i | 1 | 5 | 0.9 | CCCN(C)C[C@@H]1Oc2ncc(-c3cccc(C(=O)N(C)C)c3)cc2C(=O)N([C@@H](C)CO)C[C@H]1C
21 | i | 9 | 18 | 4.9 | O=C(N[C@@H](Cc1cccnc1)C(=O)N1CCC[C@H]1C(=O)NCc1ccccc1)c1ccccc1
22 | i | -3 | -14 | 1.1 | CCCNC(=O)Nc1ccc2c(c1)C(=O)N(C)[C@H]1CC[C@H](CC(=O)Nc3cccc(C)c3)O[C@@H]1CO2
23 | i | -4 | -30 | 5.5 | CN1C(=O)c2cc(NC(=O)c3ccc(C(F)(F)F)cc3)ccc2OC[C@@H]2O[C@H](CC(=O)NC3Cc4ccccc4C3)CC[C@H]21
24 | i | -1 | 3 | -0.3 | CO[C@H]1CN(C)C(=O)c2cc(NC(=O)c3cnccn3)ccc2OC[C@@H](C)NC[C@H]1C
25 | i | 4 | 10 | -1.9 | C[C@H](CO)N1C[C@H](C)[C@H](CN(C)C(=O)C2CCC2)Oc2cc(C#CCN(C)C)ccc2S1(=O)=O

(listing goes on)
entry | FGF22 binding | rRNA inh HTS | rRNA inh HTS OD600 | rRNA inh HTS RFP | Compound
26 | i | 0 | -2 | -2.5 | CN(C)CC(=O)N[C@H]1CC[C@H](CCNC(=O)Nc2ccc(F)cc2)O[C@H]1CO
27 | i | -6 | 0 | -0.6 | CCC(=O)N1CC2(C1)CN(C(=O)Nc1ccc(F)cc1)[C@@H](CO)c1c2c2ccc(OC)cc2n1C
28 | i | 6 | -3 | 0.6 | C[C@H]1CN([C@@H](C)CO)C(=O)c2cc(C#Cc3ccc(F)cc3)cnc2O[C@H]1CN(C)C
29 | i | -2 | -6 | 2.3 | Cc1noc(C)c1S(=O)(=O)N(C)C[C@@H]1Oc2c(NC(=O)c3nc4ccccc4s3)cccc2C(=O)N([C@H](C)CO)C[C@@H]1C
30 | i | -5 | 0 | -2.5 | COC(=O)C[C@@H]1C=C[C@@H](NC(=O)Nc2ccc(C(F)(F)F)cc2)[C@@H](CO)O1
31 | i | -2 | -4 | 3.7 | COCC(=O)Nc1ccc2c(c1)C(=O)N(C)C[C@@H](OC)[C@H](C)CN(Cc1cccc(F)c1)[C@H](C)CO2
32 | i | -1 | -7 | 6.2 | C[C@H]1CN([C@@H](C)CO)C(=O)c2cc(C#Cc3cccc(F)c3)cnc2O[C@@H]1CN(C)Cc1ccccn1
33 | i | -37 | -69 | 28 | C[C@H](CO)N1C[C@H](C)[C@H](CN(C)Cc2ccccc2)Oc2ncc(/C=C/c3ccccc3)cc2C1=O
34 | i | 1 | 5 | 1.2 | COc1cccc(CNC(=O)C[C@H]2CC[C@@H]3[C@H](COc4ccc(NC(C)=O)cc4C(=O)N3C)O2)c1
35 | i | -2 | 6 | -3.0 | C[C@H]1CN([C@@H](C)CO)C(=O)Cc2cc(NC(=O)CCN3CCOCC3)ccc2O[C@@H]1CN(C)Cc1ccncc1
36 | i | 3 | 11 | -1.1 | CN1C(=O)c2cc(NC(=O)Cc3cccs3)ccc2OC[C@H]2O[C@H](CC(=O)NCCc3ccncc3)CC[C@H]21
37 | i | 3 | -2 | -0.1 | CO[C@H]1CN(C)C(=O)c2cc(NC(=O)NC(C)C)ccc2OC[C@@H](C)N(C(=O)C2CCC2)C[C@@H]1C
38 | i | 0 | 6 | 2.3 | COc1ccc2c3c([nH]c2c1)[C@H](CO)N(C(=O)C1CCC1)CC31CCN(C(=O)c2ccncc2)CC1
39 | i | 2 | 4 | -1.5 | C[C@@H]1CCCCO[C@@H](CN(C)S(=O)(=O)c2cccs2)[C@@H](C)CN([C@H](C)CO)C(=O)c2cc(NC(=O)Nc3ccc(F)cc3)ccc2O1
40 | i | 3 | -19 | -1.9 | CC(C)CC#Cc1cnc2c(c1)C(=O)N([C@@H](C)CO)C[C@@H](C)[C@@H](CN(C)S(=O)(=O)c1cccs1)O2
41 | i | 1 | -13 | 1.3 | CNC[C@@H]1Oc2cc(-c3ccncc3)ccc2S(=O)(=O)N([C@H](C)CO)C[C@H]1C
42 | i | -2 | -16 | 1.8 | COc1cccc(S(=O)(=O)Nc2ccc3c(c2)[C@H]2C[C@H](CC(=O)NC4CCCCC4)O[C@H](CO)[C@H]2O3)c1
43 | i | -3 | 5 | 0.5 | C[C@@H]1CN([C@@H](C)CO)C(=O)c2cccc(NC(=O)Nc3ccc(F)cc3)c2O[C@@H]1CN(C)CC1CC1
44 | i | 3 | 0 | -2.7 | O=C(Cc1cccnc1)N1CC2(C1)[C@H](c1ccccc1)[C@H](CO)N2C(=O)C1CCOCC1
45 | i | -1 | 11 | 0.0 | CN1CCN(C(=O)C[C@@H]2CC[C@@H]3[C@H](COC[C@H](O)CN3Cc3cccc(Cl)c3)O2)CC1
46 | i | 1 | -1 | 1.2 | C[C@@H]1CN([C@@H](C)CO)C(=O)c2cccc(NS(=O)(=O)c3cccs3)c2O[C@@H]1CN(C)C(=O)Nc1ccc2c(c1)OCO2
47 | i | -5 | -15 | -1.3 | N#C[C@H]1[C@H](c2ccccc2C2=CCCCC2)[C@@H](CO)N1C(=O)CN1CCOCC1
48 | i | -2 | 2 | -1.2 | O=C(N[C@@H]1CC[C@H](CCNS(=O)(=O)c2ccccc2)O[C@@H]1CO)c1cccc(F)c1
49 | i | -5 | -10 | 0.0 | C[C@@H]1CN([C@H](C)CO)C(=O)c2cccc(NC(=O)c3ccc(-c4nccs4)cc3)c2O[C@@H]1CN(C)C(=O)NC1CCCCC1
50 | i | 3 | 0 | 4.9 | COc1ccc2c3c([nH]c2c1)[C@@H](CO)N(Cc1ccccc1)CC31CCN(CC2CC2)CC1

Other records follow:
entry | FGF22 binding | rRNA inh HTS | rRNA inh HTS OD600 | rRNA inh HTS RFP | Compound
51 | i | 0 | 0 | 0.3 | CNC(=O)C[C@H]1CC[C@H]2[C@H](COc3ccc(NC(=O)Nc4cccc(F)c4)cc3C(=O)N2C)O1
52 | i | 0 | 3 | 2.1 | Cc1ccc(S(=O)(=O)N(C)C[C@H]2Oc3ccc(NC(=O)Nc4ccc(C(F)(F)F)cc4)cc3CC(=O)N([C@H](C)CO)C[C@@H]2C)cc1
53 | i | 5 | 6 | -5.3 | COc1ccc(NC(=O)Nc2ccc3c(c2)C(=O)N([C@@H](C)CO)C[C@H](C)[C@H](CN(C)S(=O)(=O)c2ccc(Cl)cc2)OCCCC[C@@H](C)O3)cc1
54 | i | 3 | -1 | -0.8 | C[C@H](CO)N1C[C@H](C)[C@H](CN(C)Cc2ccc(Oc3ccccc3)cc2)Oc2c(NC(=O)C3CCOCC3)cccc2C1=O
55 | i | -1 | -3 | -0.1 | O=C(C[C@H]1CC[C@H]2[C@@H](COC[C@@H](O)CN2Cc2cccc(F)c2)O1)NCc1cccc(F)c1
56 | i | -1 | 2 | -1.1 | CO[C@@H]1CN(C)C(=O)c2ccc(NC(=O)Nc3c(C)noc3C)cc2OC[C@H](C)N(CC2CC2)C[C@H]1C
57 | i | 5 | 8 | 0.3 | CNC[C@@H]1OCCCC[C@@H](C)Oc2ccc(NS(=O)(=O)c3cccs3)cc2C(=O)N([C@H](C)CO)C[C@@H]1C
58 | i | 2 | 3 | -1.5 | COc1ccc(S(=O)(=O)N(C)C[C@H]2OCCCC[C@@H](C)Oc3ccc(NS(=O)(=O)c4c(C)noc4C)cc3C(=O)N([C@H](C)CO)C[C@H]2C)cc1
59 | i | 2 | -2 | -1.7 | Cn1cnc(S(=O)(=O)N2CC[C@H]3[C@H](CO)Nc4ccc(-c5ccccc5F)cc4[C@H]32)c1
60 | i | 0 | -2 | -0.5 | CCCNC(=O)Nc1ccc2c(c1)C(=O)N(C)C[C@@H](OC)[C@H](C)CN(Cc1cccnc1)[C@@H](C)CO2
61 | i | -2 | -15 | 0.6 | COc1ccc(S(=O)(=O)Nc2ccc3c(c2)CC(=O)N([C@@H](C)CO)C[C@@H](C)[C@@H](CN(C)Cc2ccc4c(c2)OCO4)O3)cc1
62 | i | 2 | 14 | -1.3 | C[C@@H]1CN([C@@H](C)CO)C(=O)c2cccc(N(C)C)c2O[C@H]1CN(C)Cc1ccc(C(F)(F)F)cc1
63 | i | 5 | 6 | -2.3 | C[C@H](CO)N1C[C@H](C)[C@@H](CN(C)C(=O)Cc2ccncc2)Oc2ncc(C#CC3(O)CCCC3)cc2C1=O
